MLL AF4-AF9 inh – inhibitors of human MLL-AF4/AF9 interaction | AlphaScreen, biotin-AF4 peptide binding to FLAG-AF9 | inhibition, % at 10 µM | 350,000 compounds, 0.47% hits;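 active means every replicate reaching a set inhibition limit, whatever the replicate mean, cut at about 25% in these data; inconclusive means mean inhibition reaches that limit but some replicates miss it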;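 further: 0% = plate neutral control median and 100% = total signal loss; the record names both 10 and 1 µM as test concentration; the first replicate is given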
Target sequence (P42568 whole entry, looked up): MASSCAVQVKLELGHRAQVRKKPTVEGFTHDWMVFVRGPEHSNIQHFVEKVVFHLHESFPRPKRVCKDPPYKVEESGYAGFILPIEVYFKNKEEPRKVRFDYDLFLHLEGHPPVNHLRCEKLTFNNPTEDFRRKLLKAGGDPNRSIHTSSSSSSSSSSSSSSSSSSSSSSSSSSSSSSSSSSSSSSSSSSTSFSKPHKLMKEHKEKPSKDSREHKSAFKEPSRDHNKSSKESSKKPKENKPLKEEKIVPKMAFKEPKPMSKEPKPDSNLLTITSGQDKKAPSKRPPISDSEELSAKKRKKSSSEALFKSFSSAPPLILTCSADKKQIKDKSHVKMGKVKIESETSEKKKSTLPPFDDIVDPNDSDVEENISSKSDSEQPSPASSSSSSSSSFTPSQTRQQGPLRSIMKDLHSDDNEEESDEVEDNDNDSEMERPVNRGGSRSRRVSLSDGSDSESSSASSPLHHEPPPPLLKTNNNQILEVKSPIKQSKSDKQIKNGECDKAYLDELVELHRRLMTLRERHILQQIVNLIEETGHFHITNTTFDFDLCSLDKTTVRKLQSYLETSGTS
rRNA inh HTS – selective bacterial rRNA inhibition in E. coli; 350,000 compounds, 1.6% hits; E. coli WT GFP vs humanized-ribosome RFP mutants, fluorescence, 24 h; active compounds read low; DMSO median 0, no signal -100; GFP signal change (wild-type ribosome), % (concentration not given with the values); AID 720706;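 active means significant combined selectivity score with lowered wild-type GFP, culture density cut under 30%, mutant RFP and density less affected; inactive means any of these conditions unmet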; further: one replicate is shown; some compounds called inactive have numbers as strong as hits
FGF22 binding – binders of recombinant human FGF22 by thermal shift; 340,000 compounds, 1.5% hits; SYPRO orange fluorescence; percent of sucrose octasulfate shift, DMSO zero; calls only at 9.99 µM; Q9HCT0;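 active means melting point raised past a set limit in the mean and every replicate; inconclusive means no clear call; three in four hits are not shown here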
Target sequence (Q9HCT0 whole entry, looked up): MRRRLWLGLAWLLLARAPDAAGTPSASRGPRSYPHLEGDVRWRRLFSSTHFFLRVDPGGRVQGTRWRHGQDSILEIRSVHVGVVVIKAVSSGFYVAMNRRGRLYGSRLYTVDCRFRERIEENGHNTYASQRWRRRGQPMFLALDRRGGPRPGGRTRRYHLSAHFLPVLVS
rRNA inh HTS OD600 – second read-out of rRNA inh HTS, no call of its own (marks repeat the call); OD600 change, %; measured here: OD600 growth;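 optical density of the mix in the first replicate; 0 = DMSO median and -100 = no signal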
rRNA inh HTS RFP – further read-out of rRNA inh HTS, marked with its call; RFP signal change, %; measured here: RFP humanized mutant strains;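 first replicate; 0 = DMSO median and -100 = no signal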
* = called active by the depositor; i = inactive; ? = inconclusive; + = active, no number; & = joins results of further samples. A portion of the library; the hit share may differ from the screen's.

SMILES	MLL AF4-AF9 inh	rRNA inh HTS	rRNA inh HTS OD600	rRNA inh HTS RFP	FGF22 binding
C[C@H]1CCCCO[C@@H](CN(C)C(=O)NC2CCCCC2)[C@@H](C)CN([C@@H](C)CO)C(=O)c2cc(NS(=O)(=O)c3cccs3)ccc2O1	-3.3	-3.4	-1.6	5.8	i
O=C(NCc1cc(F)cc(F)c1)[C@@H]1[C@@H](CO)[C@@H]2Cn3c(cccc3=O)[C@H]1N2	-1.9	0.1	8.3	-0.5	i
CC(C)C#Cc1ccc([C@@H]2[C@@H](CO)N3C(=O)CN(C(=O)C4CCCCC4)C[C@H]23)cc1	-8.4	4.3	-33.5	17.3	i
C[C@H](CO)N1C[C@H](C)[C@H](CN(C)C(=O)Nc2ccc(C(F)(F)F)cc2)Oc2ncc(C#C[C@@H](C)O)cc2C1=O	-13.3	2.7	3.9	-0.8	i
C[C@H](CO)N1C[C@H](C)[C@H](CN(C)CC2CCCCC2)Oc2ccc(NC(=O)CCCN(C)C)cc2CC1=O	-3.6	2.4	3.9	-0.8	i
C[C@@H]1CN([C@H](C)CO)C(=O)c2cccc(NS(=O)(=O)c3ccc(Cl)cc3)c2O[C@@H]1CN(C)Cc1ccc(Cl)c(Cl)c1	0.9	-0.5	-0.7	1.2	i
C[C@H](CO)N1C[C@H](C)[C@@H](CN(C)C)OCc2cnnn2CCCC1=O	-1.1&0.3&-4.6	9.1&-1.3	6.9&-9.4	-0.1&-1.8	i
CC(=O)NC(c1ccccc1)c1nc(-c2cccs2)cs1 (centres undefined)	-4.2	7.4	20.9	1.2	i
O=C(C[C@@H]1CC[C@H]2[C@@H](COC[C@@H](O)CN2Cc2ccccc2F)O1)N[C@H]1CCN(Cc2ccccc2)C1	3.8	-3.2	-12.4	1.6	i
COC(=O)c1ccc(CN2CC(=O)N3[C@H](CO)[C@H](c4ccc(Br)cc4)[C@H]3C2)cc1	4.1	-3.5	-3.1	-1.6	i
O=C(Nc1cccc(F)c1)N1C[C@@H]2[C@H](c3ccccc31)[C@H](CO)N2C(=O)c1cccnc1	0.7	-4.8	0.8	0.9	+
CC(C)NC(=O)N1CCCCN2[C@H](CO)[C@@H](c3ccc(C#Cc4ccccc4)cc3)[C@H]2C1	6.3	-59.6	-75.4	-15.4	i
OC(c1ccccc1)c1ncc(-c2ccc(Cl)cc2)[nH]1 (centres undefined)	3.1	-1.6	-20.6	0.3	i
CC(C)NC(=O)N(C)C[C@@H]1OCc2cn(nn2)CCCC(=O)N([C@H](C)CO)C[C@H]1C	-9.9&-0.5	16.4&1.3	6.3&6.0	-0.6&0.7	i
O=C(C[C@@H]1CC[C@H]2[C@@H](COC[C@@H](O)CN2C(=O)c2ccc3c(c2)OCO3)O1)NC1Cc2ccccc2C1	0.3	1.5	-6.9	-0.6	i
C[C@@H](NC(=O)C[C@@H]1C[C@H]2c3cc(NC(=O)C4CCC4)ccc3O[C@H]2[C@@H](CO)O1)c1ccccc1	0.9	0.0	-3.5	0.1	i
C[C@H](CO)N1C[C@H](C)[C@H](CN(C)Cc2ccc(-c3ccccc3)cc2)Oc2ccc(NC(=O)Cc3cn(C)c4ccccc34)cc2CC1=O	0.7	1.4	4.3	0.5	i
COCC(=O)Nc1ccc2c(c1)OC[C@H](C)N(Cc1cccc(F)c1)C[C@H](C)[C@H](OC)CN(C)C2=O	4.4	-1.1	3.3	-2.3	i
O=C(NC(c1ccccc1)c1cnccn1)C1CCN(CCCOc2ccccc2)CC1 (centres undefined)	-1.3	9.5	22.9	0.8	i
C[C@@H]1CN([C@@H](C)CO)C(=O)c2cc(NC(=O)Nc3cccc4ccccc34)ccc2O[C@H]1CN(C)S(=O)(=O)c1ccc(F)cc1	2.5	-0.6	4.1	-1.7	i
C[C@H]1CN([C@@H](C)CO)S(=O)(=O)c2ccc(C3=CCCCC3)cc2O[C@@H]1CN(C)C(=O)Cc1cccnc1	5.3	-7.0	-15.9	-1.6	i
COc1ccc(NC(=O)N(C)C[C@@H]2Oc3c(NC(=O)Nc4ccccc4)cccc3C(=O)N([C@@H](C)CO)C[C@H]2C)cc1	-1.0	-2.6	-4.7	-3.2	i
CC=Cc1ccc2n(c1=O)C[C@H]1[C@H](CO)[C@@H](C(=O)NCC)[C@@H]2N1Cc1nccs1 (mixture of isomers)	0.2	0.1	6.3	-2.5	i
C[C@H](CO)N1C[C@H](C)[C@@H](CN(C)CC2CCCCC2)Oc2ccc(NC(=O)Cc3cn(C)c4ccccc34)cc2CC1=O	21.9	-9.8	-31.1	8.8	i
C[C@@H]1CN([C@H](C)CO)C(=O)c2cccc(NC(=O)c3ccncc3)c2O[C@@H]1CN(C)Cc1ccccc1	-3.1	7.1	14.2	3.3	i

Complete entries as entered above:
`O=C(C[C@@H]1CC[C@H]2[C@@H](COC[C@@H](O)CN2Cc2ccccc2F)O1)N[C@H]1CCN(Cc2ccccc2)C1` as listed: MLL AF4-AF9 inh = 3.8; rRNA inh HTS = -3.2; rRNA inh HTS OD600 = -12.4; rRNA inh HTS RFP = 1.6; FGF22 binding = i
`C[C@H]1CN([C@@H](C)CO)S(=O)(=O)c2ccc(C3=CCCCC3)cc2O[C@@H]1CN(C)C(=O)Cc1cccnc1` as listed: MLL AF4-AF9 inh = 5.3; rRNA inh HTS = -7.0; rRNA inh HTS OD600 = -15.9; rRNA inh HTS RFP = -1.6; FGF22 binding = i

More results.
SMILES	MLL AF4-AF9 inh	rRNA inh HTS	rRNA inh HTS OD600	rRNA inh HTS RFP	FGF22 binding
COc1cccc(C#Cc2ccc3c(c2)O[C@H](CN(C)C(=O)CN2CCOCC2)[C@H](C)CN([C@H](C)CO)S3(=O)=O)c1	5.3	1.8	-3.7	11.8	i
CCc1nc2ccc(C(=O)NCCCN3CCCC3=O)cn2c1N(C=O)CC	-0.8	12.3	15.7	-0.5	i
C[C@@H]1CN([C@@H](C)CO)C(=O)c2cc(NC(=O)Nc3cccc4ccccc34)ccc2O[C@H]1CN(C)S(=O)(=O)c1ccccc1	2.3	-2.7	-1.9	0.5	i
COC(=O)[C@]12CCCCC=C1N(Cc1ccccc1)C(=O)[C@H](CC(=O)NCCCCc1ccccc1)C2	?	-0.8	1.9	7.0	i
Cc1noc(C)c1NC(=O)Nc1ccc2c(c1)CC(=O)N([C@H](C)CO)C[C@H](C)[C@@H](CN(C)CC1CCCCC1)O2	2.0	2.0	-2.3	1.3	i
C[C@@H]1CN([C@@H](C)CO)C(=O)c2cc(NC(=O)Nc3cccc4ccccc34)ccc2O[C@H]1CN(C)C	0.4	1.5	9.9	-2.7	i
CC(=O)N1[C@@H]2c3ccc(-c4ccccc4F)c(=O)n3C[C@H]1[C@H](CO)[C@H]2C(=O)NC1CCC1	-0.6	1.4	-3.1	-2.3	i
COc1ccc(NC(=O)Nc2ccc3c(c2)CC(=O)N([C@H](C)CO)C[C@H](C)[C@H](CN(C)S(C)(=O)=O)O3)cc1	-0.8	2.1	-8.6	-0.1	i
COc1ccccc1CN(C)C[C@@H]1OCc2cn(nn2)CCCC(=O)N([C@H](C)CO)C[C@H]1C	0.0	-0.3	2.3	0.0	i
COc1ccc(NC(=O)CCNS(=O)(=O)c2ccccc2F)cc1S(=O)(=O)N1CCOCC1	0.5	4.6	0.6	-1.7	i
C[C@H]1CN([C@@H](C)CO)C(=O)c2cccc(NC(=O)Nc3cccc4ccccc34)c2O[C@H]1CN(C)Cc1ccncc1	3.2	-7.7	-10.7	-0.6	i
C[C@H]1CN([C@@H](C)CO)S(=O)(=O)c2ccc(-c3ccccc3)cc2O[C@H]1CN(C)Cc1ccccc1C(=O)O	6.3	-1.7	3.4	4.4	i
COc1ccc(-c2ccccc2[C@H]2[C@@H](CO)N(C(=O)NC3CCCCC3)[C@H]2C#N)cc1	-9.0	-4.5	-50.1	-5.8	i
Cc1ccc(NC(=O)CSc2nnc3ccccn23)c(Cl)c1	-5.2	-1.0	8.4	-0.1	i
CC(C)=C(NC(=O)c1ccccc1Cl)C(=O)NCCc1nc2ccccc2[nH]1	-0.4	2.3	7.8	-3.6	i
C[C@@H]1CN([C@H](C)CO)C(=O)Cc2cc(NC(=O)NC3CCCCC3)ccc2O[C@@H]1CN(C)CC1CC1	3.1	-1.0	1.2	-2.1	i
Cc1noc(C)c1NC(=O)Nc1ccc2c(c1)CC(=O)N([C@H](C)CO)C[C@H](C)[C@@H](CN(C)C(=O)NC1CCCCC1)O2	-1.8	3.8	-0.1	-1.5	i
CC1CCCC(C)N1C(=O)COC(=O)CNS(=O)(=O)c1ccc2ccccc2c1 (centres undefined)	-7.3	1.0	-6.8	7.0	i
C[C@@H]1CCCCO[C@@H](CN(C)C(=O)Nc2ccc(F)cc2)[C@@H](C)CN([C@H](C)CO)C(=O)c2cc(NS(C)(=O)=O)ccc2O1	-1.3	2.0	5.4	-1.4	i
O=C(C[C@@H]1CC[C@@H]2[C@H](COC[C@@H](O)CN2S(=O)(=O)c2ccccc2)O1)NCc1ccc(-c2ccccc2)cc1	23.9	-8.1	-0.7	7.2	i
CCOC(=O)C[C@@H](C#N)NC(=O)[C@@H]1CCCN1C(=O)[C@@H](NC(=O)c1ccc(N)c(Cl)c1)C(C)(C)C	-3.6	5.5	2.3	4.4	i
CO[C@@H]1CN(C)C(=O)c2ccc(NC(=O)C3CCC3)cc2OC[C@@H](C)N(Cc2cccnc2)C[C@@H]1C	0.8	-8.8	-9.1	-0.7	i
CCCNC(=O)C[C@H]1CC[C@H]2[C@@H](COC[C@@H](O)CN2C(=O)Nc2ccc3c(c2)OCO3)O1	0.8	1.1	7.3	-0.2	i
O=C(N[C@H]1C=C[C@@H](CC(=O)N2CCC(Cc3ccccc3)CC2)O[C@@H]1CO)c1cnccn1	0.2	0.4	6.7	0.2	i
CC(C)n1nnnc1C1c2ccccc2C(=O)N1CCc1ccccc1F (centres undefined)	1.0	17.1	8.1	0.7	i

Remaining list, next part
SMILES	MLL AF4-AF9 inh	rRNA inh HTS	rRNA inh HTS OD600	rRNA inh HTS RFP	FGF22 binding
CCC(=O)Nc1ccc2c(c1)C(=O)N(C)[C@H]1CC[C@@H](CC(=O)NCC3CC3)O[C@H]1CO2	-3.8	2.8	-4.3	-0.5	i
C[C@H]1CN([C@@H](C)CO)C(=O)c2cc(-c3ccccc3)cnc2O[C@H]1CN(C)C(=O)c1ccccn1	-3.7	6.5	22.4	-1.7	i
C[C@H](CO)N1C[C@H](C)[C@@H](CN(C)C(=O)Nc2ccc(F)cc2)Oc2ccc(NC(=O)Cc3ccccc3)cc2C1=O	0.1	3.4	6.9	1.6	i
COc1cccc(-c2cnc3c(c2)C(=O)N([C@H](C)CO)C[C@H](C)[C@H](CN(C)Cc2cccnc2)O3)c1	-0.9	-6.1	-14.6	-2.4	i
O=C(C[C@H]1C[C@@H]2c3cc(NC(=O)Nc4ccc(C(F)(F)F)cc4)ccc3O[C@@H]2[C@@H](CO)O1)NCc1ccc2c(c1)OCO2	4.4	-5.5	-32.5	7.5	i
CO[C@H](C(=O)N(C)C[C@@H]1OCc2ccccc2-c2c(n(C)c3ccccc23)C(=O)N([C@@H](C)CO)C[C@H]1C)c1ccccc1	-0.3	-1.0	-4.3	-1.1	i
C[C@H](CO)N1C[C@H](C)[C@H](CN(C)Cc2ccc3c(c2)OCO3)Oc2ccc(NC(=O)Cc3cn(C)c4ccccc34)cc2CC1=O	0.7	-3.2	-8.1	3.4	i
COC(=O)C[C@@H]1C[C@H]2c3cc(NC(=O)CC4CC4)ccc3O[C@H]2[C@H](CO)O1	-2.0	2.3	10.0	-4.7	i
COc1ccc2c3c(n(C)c2c1)[C@H](CO)N(CC1CCCC1)CC31CN(C(C)=O)C1	1.5	2.9	6.8	-1.1	i
C[C@@H]1CN([C@H](C)CO)C(=O)c2cc(-c3ccccc3F)cnc2O[C@H]1CN(C)Cc1ccccc1F	7.7	-1.8	-9.0	6.9	i
C[C@H](CO)N1C[C@H](C)[C@H](CN(C)Cc2ccc(C(=O)O)cc2)Oc2c(NC(=O)NC3CCCCC3)cccc2C1=O	-12.2	4.6	7.1	-0.2	i
CC1=C(C(=O)OCc2ccccc2)C(c2ccc(C)cc2)NC(=O)N1 (centres undefined)	0.2	-22.9	-47.0	-5.5	i
COc1ccc(NC(=O)N(C)C[C@H]2OCCCC[C@@H](C)Oc3ccc(NC(=O)Nc4ccc(F)cc4)cc3C(=O)N([C@H](C)CO)C[C@H]2C)cc1	2.8	-0.7	-5.9	-2.0	i
C[C@H](CO)N1C[C@H](C)[C@@H](CN(C)C(=O)Nc2ccccc2)Oc2ncc(C#CC3CCCCC3)cc2C1=O	3.4&3.0&7.3	-4.0&0.4	3.1&0.3	-3.8&0.6	i
C/C=C/c1ccc2c(c1)O[C@H](CN(C)S(=O)(=O)c1ccc(F)cc1)[C@H](C)CN([C@H](C)CO)S2(=O)=O	7.2	-1.3	-8.0	7.9	i
C[C@@H]1CN([C@H](C)CO)C(=O)c2cc(C#CCc3ccccc3)cnc2O[C@H]1CN(C)Cc1cccnc1	3.9	1.1	-7.4	10.5	i
COC(=O)c1ccc2nc(-c3ccco3)c(Cc3ccsc3)n2c1	-12.7	-2.1	7.0	6.4	i

Compound activity deposited in PubChem by Broad Institute.
